Screening results: PubChem, National Center for Advancing Translational Sciences (NCATS)
Rango-impB inh – prevents formation of the Rango-importin beta complex; Rango CFP/YFP FRET sensor + importin beta, 45 min; 340,000 tested, 0.031% active; Potency, µM (titrated, usually from 92.2 µM), without a hit: at the top dose inhibition of complex formation; Q14974; AID 540263; active = rising FRET ratio curve, often small or poorly fitted; inconclusive = mostly compound fluorescence or quenching in the first reads; inactive = flat curves in all reads;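 note: potency is the fitted concentration of half-maximal effect; 0% = DMSO wells and 100% = buffer wells lacking importin beta; nearly all actives have a fitted effect of over 15% in size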
Target sequence (Q14974 whole entry, looked up): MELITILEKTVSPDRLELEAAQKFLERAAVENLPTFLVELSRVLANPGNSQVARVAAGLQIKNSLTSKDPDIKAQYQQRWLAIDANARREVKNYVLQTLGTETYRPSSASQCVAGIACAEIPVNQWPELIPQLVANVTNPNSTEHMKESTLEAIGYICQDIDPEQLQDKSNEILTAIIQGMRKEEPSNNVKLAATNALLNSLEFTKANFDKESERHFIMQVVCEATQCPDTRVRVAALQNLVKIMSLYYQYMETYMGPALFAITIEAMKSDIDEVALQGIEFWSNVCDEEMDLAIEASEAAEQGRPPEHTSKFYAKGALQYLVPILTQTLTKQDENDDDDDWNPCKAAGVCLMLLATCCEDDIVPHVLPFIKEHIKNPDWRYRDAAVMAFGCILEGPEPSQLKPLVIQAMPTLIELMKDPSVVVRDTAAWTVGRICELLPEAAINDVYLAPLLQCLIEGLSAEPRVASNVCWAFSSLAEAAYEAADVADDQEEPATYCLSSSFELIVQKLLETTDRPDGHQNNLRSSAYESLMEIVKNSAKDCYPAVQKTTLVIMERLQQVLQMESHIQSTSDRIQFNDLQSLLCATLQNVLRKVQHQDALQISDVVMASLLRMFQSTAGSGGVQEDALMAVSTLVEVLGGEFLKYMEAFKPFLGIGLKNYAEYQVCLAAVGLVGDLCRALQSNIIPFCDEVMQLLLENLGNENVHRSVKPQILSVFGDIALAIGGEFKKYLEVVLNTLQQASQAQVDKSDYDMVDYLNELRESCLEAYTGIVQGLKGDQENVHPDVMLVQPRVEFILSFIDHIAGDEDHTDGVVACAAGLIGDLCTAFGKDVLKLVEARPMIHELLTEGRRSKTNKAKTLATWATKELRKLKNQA
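FRET biosensor (snurportin 1 IBB flanked by EYFP and cerulean), 50 nM, with compound 5 min, then 0.125 microM importin beta in PBS, 1 mM DTT, 0.02% Tween-20, 0.1% BSA. CFP/YFP ratio read after 45 min at room temperature; pre-read flags interference.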
miR-21 FLuc – miR-21 reporter, rising signal; HeLa miR-21 FLuc reporter, luciferase, 48 h; AID 2288; Potency, µM (series often up to 38.3 µM), without a hit: at the highest dose reporter change, positive = more light; 340,000 tested, under 10 active; active = well fitted rising curve with a large enough effect; inconclusive = small, poorly fitted or top-dose-only effect; inactive = no such curve, though single readings can be large or run the other way;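 note: % of control where 0% means no effect; miR-21 action dims this reporter so a rising signal means less miR-21 action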
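Luminescence from a firefly luciferase reporter carrying a miR-21 binding site downstream, stably expressed under a CMV promoter in HeLa cells that make miR-21 endogenously, reports miRNA modulation after 48 h compound exposure up to approximately 40uM final.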
GLA inh pH 4.5 – inhibitors of human alpha-galactosidase A at pH 4.5 | P06280 | purified enzyme, 4-MU-alpha-Gal fluorescence, pH 4.5 | activity change, negative = inhibition, % at 105 µM | 230,000 tested, under 10 active | AID 1467; inconclusive = small, poorly fitted or top-dose-only inhibition, or a rising curve; inactive = flat fitted curve, though single readings scatter; no compound was filed as active;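 note: 0% = full activity with enzyme and -100% = basal without enzyme; dose as in the result columns while the protocol names 77 µM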
Rango dissoc inh – prevents RanGTP from dissociating the Rango-importin beta complex. Potency, µM (top dose mostly 46.1 µM), without a hit: at the top dose activity change, negative = inhibition. Biochemical FRET Rango-importin beta, RanGTP-induced dissociation. 340,000 tested, 0.071% active; active means falling FRET ratio curve, often poorly fitted, with flat reads before Ran was added; inconclusive means other falling curves, or compound fluorescence or quenching; inactive means flat or rising ratio curve;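 note: potency is the fitted concentration of half-maximal effect; % of control where 0% means no effect; nearly all actives have a fitted effect of over 45% in size; -100% = wells without RanGTP and RCC1; the record marks most hits as doubtful in a second field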
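Rango FRET biosensor (snurportin-1 IBB flanked by N-terminal EYFP and C-terminal CFP10) at 0.1 uM, with 0.25 uM importin beta in PBS, 1mM DTT, 0.02% Tween-20, 0.1% BSA. 0.6 uM Ran, 2mM GTP and 0.2 uM RCC1 were then added for 45 min at room temperature. Inhibition read as loss of FRET rise.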
Active calls of the source: *; ? = inconclusive; / = not tested or not shown; & = joins results of further samples.

Structure	Rango-impB inh	miR-21 FLuc	GLA inh pH 4.5	Rango dissoc inh
Cc1oc2c(c(C)cc3oc(=O)c(CC(=O)N[C@@H](CC(C)C)C(=O)O)c(C)c32)c1C	4.7%	-4%	/	-12%
COC(=O)CC1C(=O)NCCN1C(=S)Nc1ccccc1Cl (stereo not given)	-1.4%	1%	-5	-20%
CC(C)CC(NC(=O)C(CO)NC(=O)C1CCC(=O)N1)C(N)=O (stereo not given)	-0.5%	-2%	5	-1%
COc1c(F)c(F)c(C(=O)Nc2ccc3oc(-c4ccncc4)nc3c2)c(F)c1F	-0.1%	-4%	-6	8%
CC(=O)NCCOC(=O)Nc1cccnc1	4.2%	6%	-5	7%
CCn1c(SCC(=O)NCc2ccco2)nc2c(c1=O)SC(C)C2 (stereo not given)	-2.0%	-10%	-1	-7%
CCOC(=O)c1sc2nccc(N(C)C)c2c1N=CNOCc1c(F)cccc1Cl	-3.4%	-19%	-6	1%
CCC(C)/C=C/C1=CC2=C(Cl)C(=O)C3(C)OC(=O)C(C(=O)C(C)C(C)O)C3C2=CO1 (stereo not given)	?	-5%	-9	?
COc1cc(NC(=S)NCc2cccs2)cc(OC)c1	4.5%	-13%	0	4%
COc1ccc(CC2=C(O)c3ccccc3C(=O)C2=O)cc1	-1.6%	-9%	/	-6%
O=C(CCc1nnc(C2CCCCC2)o1)N1CCN(Cc2ccccc2)CC1	-3.2%	-1%	4	2%
CC(NCc1ccco1)C(=O)N1CCc2ccccc2C1 (stereo not given)	0.0%	-3%	-9	-1%
CC(C)C[C@H](NC(=O)OC(C)(C)C)c1n[nH]c(=S)n1N	0.0%	0%	-6	-16%
CN(C(=O)c1ccc(NC(=O)Cc2ccc(NC(=O)C3CCN(C(=O)C4CCCCC4)CC3)cc2)cc1)C1CC1	-3.3%	/	/	-11%
C#CCOc1ccccc1/C=N/NC(=O)c1ccccc1OCc1ccccc1	0.0%	19%	/	-11%
CCOc1ccccc1NC(=O)CN(c1nccs1)S(=O)(=O)c1ccc(N)cc1	3.5%	2%	4	5%
O=C(NNC(=O)c1ccccc1F)c1cccc(S(=O)(=O)N2CCc3ccccc32)c1	1.0%	/	/	5%
COc1ccc(NC(=O)c2cc(OC)c(OC)cc2OC)c(S(=O)(=O)N2CCOCC2)c1	-0.2%	-1%	-1	18%
Cc1cc(N)n(-c2ccc(S(=O)(=O)N3CCOCC3)cc2[N+](=O)[O-])n1	-0.2%	6%	-2	-8%
O=C1CC(Sc2nnc(-c3ccccc3O)o2)C(=O)N1c1ccccc1 (stereo not given)	-7.3%	?	3	2%
CCC1CCCCN1CCCNC(=O)C1CCN(Cc2nc(-c3ccc(Cl)cc3)oc2C)CC1 (stereo not given)	-3.2%	25%	/	-9%
Cc1ccc(N(CC(=O)NCCSc2ccccn2)S(C)(=O)=O)cc1	-1.0%	-6%	?	-12%
COc1c2c(cc3oc(=O)ccc13)OC(C)(C)C=C2	0.0%	-68%	-3	-4%
O=C(NC(=S)NCC1CCCO1)c1ccccc1[N+](=O)[O-] (stereo not given)	3.0%	-2%	5	2%
O=C(Nc1nc(-c2ccccc2)cs1)c1cccnc1	-2.3%	-13%	-3	0%

(continued)
Structure	Rango-impB inh	miR-21 FLuc	GLA inh pH 4.5	Rango dissoc inh
NS(=O)(=O)OCc1ccc(C(F)(F)F)cc1	2.8%	-1%	/	-5%
O=C(CSC1=NS(=O)(=O)c2ccccc2N1)NCc1ccc(F)cc1	0.1%	/	/	-7%
Cc1ccc(C(=O)Oc2ccc(C(=O)COC(=O)C3CC(=O)N(Cc4ccco4)C3)cc2)cc1 (stereo not given)	-3.9%	1%	2	-6%
O=C(CSCc1ccc([N+](=O)[O-])cc1)NN=C1CCCCCC1	0.5%	-10%	3	-2%
O=C(NCCc1ccc(Cl)cc1)c1ccc(CS(=O)Cc2ccccc2Cl)o1 (stereo not given)	-0.9%	19%&28%	/	?
O=C(Nc1cc(-c2nc3ncccc3o2)ccc1Cl)c1ccc2c(c1)OCO2	8.4%	/	/	35%
COC(=O)N/N=C/c1cc(C)n(-c2ccc(F)cc2)c1C	0.7%	-33%	-12	-2%
Cc1[nH]c2ccc(F)cc2c1CCNC(=O)C1CCCCC1C(=O)OCC(F)(F)F (stereo not given)	-1.6%	-12%	9	-15%
O=C(O)c1ccc(CNS(=O)(=O)c2ccc(Oc3ccccc3Cl)cc2)cc1	?	-4%	/	-12%
Cc1ccc2c(COC(=O)CNC(=O)c3ccccc3)cc(=O)oc2c1	0.6%	-21%	-1	14%
CCSC1=N/C(=C\c2cccc(F)c2)C(=O)S1	-0.5%	-1%	-18	-6%
Cc1cc(C)n(C2CC(=O)N(c3cccc(Cl)c3)C2=O)n1 (stereo not given)	0.2%	0%	-8	12%
Cc1noc(C)c1S(=O)(=O)N(C)C[C@H]1Oc2ccc(NS(=O)(=O)c3ccccc3)cc2C(=O)N([C@H](C)CO)C[C@@H]1C	2.1%	/	/	1%
CC(Oc1ccc(Cl)cc1Cl)C(=O)NC1=NN(c2ccccc2)C(=O)C1 (stereo not given)	2.7%	2%	-3	-12%
CCc1ccc(CCC(=O)Nc2ccccc2C(=O)O)o1	-3.4%	-15%	-4	7%
CCN(C(=O)CSc1nnc(-c2ccc(OC(F)F)cc2)n1N)C1CCS(=O)(=O)C1 (stereo not given)	1.2%	/	/	1%
O=C(Nc1ccc(Cl)cn1)c1cccc(S(=O)(=O)N2CCOCC2)c1	-10%	-1%	8	-19%
COc1ccccc1OCCOCCOc1ccccc1Cl	-1.3%	-17%	-14	0%
CC(C)COP(=O)(OCC(C)C)C(O)c1ccc2c(c1)OCO2 (stereo not given)	0.5%	0%	-1	-22%
CCN(CC)S(=O)(=O)c1ccc(C(=O)Nc2cc(C)cc(C)c2)cc1	-2.4%	-3%	-1	-19%
Cc1cc(N2CCN(c3ccccn3)CC2)n2cc(-c3ccccc3)nc2n1	0.2%	-3%	-4	-1%
Cc1cc(C)c(S(=O)(=O)c2cc(F)ccc2C)c(=O)[nH]1	-4.4%	0%	/	11%
CCNCc1cc(Br)c(OCC(=O)Nc2ccccc2)c(OC)c1	-2.6%	-5%	-1	-5%
COCCCn1c(=O)/c(=C\c2ccccc2OC(F)F)s/c1=C(/C#N)C(N)=O	-1.2%	-4%	-1	3%
CC(=O)C1=C(C)NC(=O)CC1c1ccc(Br)cc1 (stereo not given)	-0.9%	-1%	8	5%

Compound profiles (already shown).
CC(Oc1ccc(Cl)cc1Cl)C(=O)NC1=NN(c2ccccc2)C(=O)C1 (stereo not given) reads Rango-impB inh = 2.7%; miR-21 FLuc = 2%; GLA inh pH 4.5 = -3; Rango dissoc inh = -12%
CCNCc1cc(Br)c(OCC(=O)Nc2ccccc2)c(OC)c1 reads Rango-impB inh = -2.6%; miR-21 FLuc = -5%; GLA inh pH 4.5 = -1; Rango dissoc inh = -5%

Remaining list, next part
Structure	Rango-impB inh	miR-21 FLuc	GLA inh pH 4.5	Rango dissoc inh
O=C(O)c1cccc(NC(=O)c2cccc(S(=O)(=O)N3CCCCC3)c2)c1	-6.0%	-21%	2	-3%
Cc1cc(C(F)(F)F)n2nc(-c3sccc3-n3cccc3)cc2n1	0.0%	0%	-28	2%
O=C(Nc1nc(-c2ccccc2)cs1)c1ccc(=O)[nH]c1	-4.1%	-8%	-3	0%
COc1cccc(C(c2c(NC(=O)c3ccco3)sc(C)c2C)N2CCOCC2)c1 (stereo not given)	-1.4%	/	/	5%
O=C(O)C1C2CCC(C2)C1C(=O)Nc1cccc([N+](=O)[O-])c1 (stereo not given)	0.8%	2%	/	4%
Cc1c(Cl)cccc1NCC(=O)NN=C1CCCC1	-4.1%	-12%	9	1%
O=C(CCc1nnc2ccc(N3CCCC3)nn12)Nc1ccc(F)c(F)c1	-2.2%	-1%	/	-2%
COc1ccc(/C=C/C(=O)c2cccc(-n3cnnn3)c2)cc1O	-0.2%	-1%	/	5%
O=C(CN1C(=O)/C(=C/c2ccccc2)SC1=S)Nc1cccnc1	0.2%	-5%	-4	15%
CN1CCN(NC(=O)c2cc(Br)ccc2Cl)CC1	-0.4%	-3%	-17	-3%
COc1ccc2c(c1)SC(C)CC2=O (stereo not given)	1.3%	-6%	9	33%
Cc1cc(C)nc(SCC(=O)Nn2cnnc2)n1	2.9%	1%	-19	0%
Cc1cccc(-n2cc(-c3ccccc3)c3c(=O)[nH]cnc32)c1	4.0%	-13%	1	-12%
COc1ccc(CCN(C)Cc2c(O)ccc3ccccc23)cc1OC	6.1%	-12%	/	-2%
N#C/C(=C/c1ccc(N2CCCCC2)o1)C(=O)NCCc1c[nH]c2ccccc12	?	-13%	4	?
COc1ccc(NC(=O)c2ccc3nc[nH]c3c2)c(OC)c1	-0.8%	-23%	3	-1%
OCCN1CCN(CCOc2cccc(Cl)c2)CC1	?	-3%	-21	24%
OCC[C@@H]1C[C@H](O)[C@@H](O)[C@@]2(OCCc3ccccc32)O1	0.8%	2%	/	-1%
O=C(COC(=O)c1cccc2c1C(=O)c1ccccc1C2=O)NC1CCCCC1	8.7%	21%	4	-3%
COc1ccc(OC)c(NC(=O)CCCSc2ccccc2)c1	-2.9%	-6%	/	-11%
COc1cc(SC)ccc1C(=O)Nc1ccc2c(c1)OCCO2	-0.5%	-28%	-3	5%
COc1ccc(-n2cnc3ccccc3c2=O)c([N+](=O)[O-])c1	-0.3%	-2%	/	-1%
COc1ccccc1CN(C)C(=O)c1ccc(COc2ccccc2)cc1	1.5%	-6%	/	-12%
CC(C)c1ccc2[nH]c(O)c(N=NC(=O)c3ccc(CSc4nncn4C)cc3)c2c1	1.5%	-3%	2	7%
O=C(Cc1cccs1)Nc1cccc(-c2nc3ccccc3[nH]2)c1	-0.2%	-11%	-26	-2%

(continued)
Structure	Rango-impB inh	miR-21 FLuc	GLA inh pH 4.5	Rango dissoc inh
Cc1ccccc1-c1noc(CCC(=O)NCC2CCCO2)n1 (stereo not given)	4.6%	-2%	7	-9%
CC1(c2ccccc2)NC(=O)N(CC(=O)Nc2nc(-c3ccccn3)cs2)C1=O (stereo not given)	1.2%	/	/	2%
COc1cc2cc(C)c(SCC(=O)N3CCOCC3)nc2cc1OC	6.0%	-13%	6	0%
CC(C)Oc1cc(NC(=O)CS(=O)CC(=O)Nc2cccc(C(F)(F)F)c2)c(Cl)cc1Cl (stereo not given)	-0.7%	9%	-8	1%
Nc1nc(SCc2ccc3c(c2)OCCO3)n[nH]1	-2.5%	-33%	3	15%
COc1ccccc1CCNC(=O)C(=O)NCC1OCCN1S(=O)(=O)c1ccc(Br)cc1 (stereo not given)	4.5%	15%	-16	-6%
CC(C)N1CCC(N2CCN(CC#Cc3ccccc3)CC2CCO)CC1 (stereo not given)	-5.0%	-4%	3	-1%
CCOC(=O)c1sc2ccc(S(=O)(=O)N3CCOCC3)cc2c1N	-1.5%	-7%	-2	1%
NS(=O)(=O)c1ccc(NC(=O)/C=C/c2ccc3c(c2)OCO3)cc1	1.0%	7%	1	0%
O=C(NNC(=S)NC(=O)c1cccc([N+](=O)[O-])c1)c1ccc(Br)cc1	0.9%	1%	/	?
CCCc1cc(=O)[nH]c(SCc2cc(Cl)ccc2OC(F)F)n1	0.3%	-6%	4	-12%
O=C(OC1CCOC1=O)c1cc(-c2ccc(Br)cc2)nc2ccccc12 (stereo not given)	1.8%	-6%	6	0%
O=C(CSc1nncs1)Nc1nnc(-c2ccccc2)o1	?	3%	/	-15%
COc1cccc(/C=C/C(=O)Nc2ccc(C(=O)Nc3cccc(S(N)(=O)=O)c3)cc2)c1OC	-1.4%	-9%	/	-5%
CCOc1ccccc1NC(=O)N1CCCC1C(=O)NCc1ccco1 (stereo not given)	-4.7%	0%	/	19%

These rows are one share of the data (hit frequency here may not be typical).
